Menin MLL FP FL: menin-MLL binding inhibition, fluorescein peptide; Fluorescence polarization, fluorescein-MLL peptide displacement from menin; FP activity change, % at 61.4 µM; 290,000 tested, under 10 active; AID 1766; inconclusive = falling polarisation curve, or a change in total fluorescence; inactive = total fluorescence flat and polarisation flat or rising; no compound was filed as active; the % refers to the polarisation; negative = inhibition;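 also: % of control where 0% means no effect; inhibitors lower the polarisation; unlabelled MLL peptide was the positive control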
gsp antagonist: antagonizes gsp, the McCune-Albright syndrome mutation; gsp-mutant cells, cAMP HTRF, 30 min; control for the full effect not named in the record; Potency, µM (titrated, usually from 76.9 µM), inactives show at the top dose activity change, negative = inhibition, actives largely listed as inhibitors; hit rate 0.4% among 340,000; active = falling curve of any shape with a large fitted effect; inconclusive = falling curve, mostly with a smaller effect; inactive = flat or rising curve; cell line not stated here;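 also: intracellular cAMP measured with PDE inhibitor Ro 20-1724 present during compound exposure; potency is read from the fitted curve at half-maximal effect; % is scaled to controls: 0 for no effect and ±100 for the full control effect; nearly all actives have a fitted effect of over 65% in size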
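HTRF cAMP read-out (cAMP-d2 plus anti-cAMP antibody-K in lysis buffer, 30 min RT). Before lysis, cells are exposed to compounds with […] for 30 min at 37C in DPBS containing Ca/Mg, BSA and Tween 20.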
gsp agonist: gsp mutant agonism | gsp mutant cells, cAMP HTRF, 30 min; control for the full effect not named in the record | Potency, µM (titrated, usually from 76.9 µM), inactives show at the top dose activation (cAMP increase), actives largely listed as activators | AID 624287 | hit rate 0.13% among 340,000; active = well fitted activation curve with a large enough effect; inconclusive = small, poorly fitted or top-dose-only effect, or another doubt; inactive = no such curve, though single readings can be large or run the other way; cell line not stated here;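 also: phosphodiesterase inhibitor Ro 20-1724 added with compounds to block cAMP breakdown; potency is read from the fitted curve at half-maximal effect; nearly all actives have a fitted effect of over 60% in size; about a fifth of the inactives were tested at one dose only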
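Cells stably selected in G418 were plated at 2000/well, grown 16-24 hr, then given compounds in DMSO with the PDE inhibitor […] (300 uM solution added) for 30 min at 37C; cAMP was read by HTRF.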
TRPML1 blocker: blocks the human TRPML1 channel; Q9GZU1; TRPML1-inducible cells, Ca2+ dye fluorescence, FDSS; stronger effect = lower value; inhibition of EC80 agonist-evoked calcium signal; activity change, negative = inhibition, % (concentration not given with the values); hit rate 0.02% among 390,000; AID 624415; in the data active means activity change below about -50%; inconclusive means about -30% to -50%; inactive means above about -30%;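 also: stimulus is agonist 54-4 at its EC80 concentration; % is scaled to controls: 0 for no effect and ±100 for the full control effect; compound concentration not given in the record; the text of the record puts the active cut at -80%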
Target sequence (Q9GZU1 whole entry, looked up): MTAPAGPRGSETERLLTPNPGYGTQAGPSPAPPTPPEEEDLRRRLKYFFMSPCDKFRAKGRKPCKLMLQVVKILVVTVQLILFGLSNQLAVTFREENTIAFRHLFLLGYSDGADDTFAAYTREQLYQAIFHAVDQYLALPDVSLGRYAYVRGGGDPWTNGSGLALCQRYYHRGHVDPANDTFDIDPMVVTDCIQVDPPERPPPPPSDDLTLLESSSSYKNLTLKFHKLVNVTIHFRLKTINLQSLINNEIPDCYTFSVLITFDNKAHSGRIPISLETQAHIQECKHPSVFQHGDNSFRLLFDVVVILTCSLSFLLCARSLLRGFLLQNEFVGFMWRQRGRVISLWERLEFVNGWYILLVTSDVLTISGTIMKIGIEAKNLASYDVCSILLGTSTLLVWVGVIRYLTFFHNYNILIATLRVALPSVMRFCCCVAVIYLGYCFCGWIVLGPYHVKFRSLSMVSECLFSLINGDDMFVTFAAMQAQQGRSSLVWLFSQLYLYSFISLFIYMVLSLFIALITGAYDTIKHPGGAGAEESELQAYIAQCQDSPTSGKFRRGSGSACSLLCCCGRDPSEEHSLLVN
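Tet-induced TRPML1-DL cells loaded with Ca8 no-wash calcium dye were read kinetically on FDSS. Compound addition was followed by EC80 agonist 54-4 (4 uM final); inhibition was read over 110 s.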
ClpP mod: qHTS Assay for Activators of ClpP; ATP-dependent Clp protease proteolytic subunit (Bacillus subtilis (strain 168)), P80244; purified B. subtilis ClpP, FRET peptide cleavage, 20 min; Potency, µM (doses to about 57.5 µM), without a hit: top-dose activity change, negative = active; hit rate 1.9% among 340,000; active = well fitted falling curve with a large enough effect; inconclusive = small, poorly fitted or top-dose-only effect; inactive = no such curve, though single readings can be large or run the other way; also: potency is read from the fitted curve at half-maximal effect; the source files actives as falling curves though it sought activators and does not explain the sign; nearly all actives have a fitted effect of over 65% in size; many hits overshoot -100%
Target sequence (P80244 whole entry, looked up): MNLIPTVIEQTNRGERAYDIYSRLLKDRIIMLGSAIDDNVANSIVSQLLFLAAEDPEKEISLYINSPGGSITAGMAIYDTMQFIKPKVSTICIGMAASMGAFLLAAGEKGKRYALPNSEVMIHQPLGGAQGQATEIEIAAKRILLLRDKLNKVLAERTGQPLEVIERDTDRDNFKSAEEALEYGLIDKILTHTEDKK
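Buffer: 100 mM Tris/HCl pH8, 100 mM KCl, 0.05% low protease BSA, 2.5% glycerol, 0.01% Tween-20. ClpP 10 microg/mL final; 20 min RT; delta FRET normalized to ADEP and DMSO controls.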
TRPML1 ag: human mucolipin-1 channel agonism. activation, % (no concentration beside the values). Q9GZU1. AID 624414. TRPML1-expressing cells, Ca2+ dye fluorescence, FDSS; host cell line not named in the record; reference of the full effect not given here. hit rate 0.12% among 410,000; in the data active = activation above about 50%; inconclusive = about 30% to 50%; inactive = below about 30%; also: 0% is about no effect; the text of the record puts the active cut at 80%
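Kinetic FDSS Ca2+ read in Tet-induced TRPML1-DL cells (ABD Ca8 dye plus quencher, 45-90 min RT loading): baseline, then compound, then 110 s agonist window; EC80 agonist 54-4 at 4uM final added afterwards for a 110 s antagonist window.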
Numbers without * were called inactive; ? = inconclusive; / = not tested or not shown; [ ] = remark or other dose.

SMILES	Menin MLL FP FL	gsp antagonist	gsp agonist	TRPML1 blocker	ClpP mod	TRPML1 ag
Clc1ccc2nc(-c3ccc(Br)o3)c(Nc3ccc4c(c3)OCCO4)n2c1	/	/	/	-12.5	-6.4%	1.0
O=C(Nc1ccccc1C(F)(F)F)N1Cc2ccccc2Oc2ncccc21	/	/	/	-7.5	3.9%	2.5
Cc1ccc(CNC(=O)CSCc2nc(-c3cccc(C)c3)oc2C)cc1	/	/	/	-9.3	-7.7%	3.0
O=C(/C=C/c1ccc(Cl)cc1Cl)NCc1ccncc1	-1.2	-5.3%	-43.8%[inhibitor]	-2.5	0.3%	-0.3
COC(=O)CNC(=O)c1ccc(OC2CCN(C(=O)C3CC3)CC2)cc1	2.1	7.4%	?	44.3	2.0%	-0.1
CCOc1ccc(C(=O)CC(=O)C(=O)NCCc2ccc(OC)c(OC)c2)cc1	24.6	3.6%	?	-4.6	-22.6%	1.0
O=C(O)c1cccc(S(=O)(=O)NNc2ccccc2C(F)(F)F)c1	/	9.0%	-12.1%[15.4 µM]	-15.8	/	-0.5
Cc1ccc(C2(c3ccccc3)NC(=O)N(CC(=O)NC3(C#N)CCCC3)C2=O)cc1C (configuration not stated)	/	5.2%	1.4%	-20.6	1.4%	1.3
O=C(Cc1ccc(Cl)cc1)Nc1ccccc1C(=O)Nc1ccc(C(=O)O)cc1	1.2	-5.4%	-97.5%[inhibitor]	-0.9	-0.4%	4.3
CN(C)S(=O)(=O)c1cccc(N=C2NN=C(c3ccccc3)CS2)c1	0.4	-1.1%	-10.3%	-15.9	-5.7%	0.8
CCOC(=O)c1sc(NC(=O)Cn2nnc3sc4c(c3c2=O)CCC(C(C)(C)C)C4)nc1C (configuration not stated)	9.2	-20.0%	-1.9%[15.4 µM]	-14.4	-3.6%	-0.5
COc1ccccc1N1CCN(C(=O)c2ccc(N(C)S(=O)(=O)c3ccccc3)cc2)CC1	-9.0	-8.9%	2.1%[15.4 µM]	29.7	/	1.1
Cc1ccc(C(=O)OC2=C(C(=O)c3ccccc3)N(C)S(=O)(=O)c3ccccc32)cc1	/	/	/	43.2	-4.4%	1.8
Cn1c(=O)c2ncn(CC(=O)NCCC3=CCCCC3)c2n(C)c1=O	-2.6	24.3%	?	-8.3	-0.5%	0.0
CCCCCCCCNCCS(=O)(=O)NC1CCCCC1	/	-1.5%	/	6.4	1.6%	-0.7
Cc1ccc(Cc2nc3ccccc3nc2SCC(=O)N2CCN(c3ccccc3F)CC2)cc1	/	/	/	15.2	-5.3%	-0.7
CC(C)N(CCCNC(=O)CC1Oc2ccccc2NC1=O)Cc1ccccc1 (configuration not stated)	-3.6	2.7%	27.6%	12.5	-0.7%	-0.4
O=C(c1ccc(F)cc1F)N1CCN(S(=O)(=O)c2ccc3c(c2)OCCO3)CC1	/	8.7%	-0.8%	2.0	0.5%	1.3
CC(C)(CS(=O)(=O)[O-])NC(=O)CC[N+](C)(C)CCO	-1.6	3.3%	?	-10.0	-3.7%	-0.5
CC(=O)Nc1cccc(NC(=O)c2cc(C)on2)c1	-0.7	1.1%	-10.7%	7.4	0.9%	-0.3
CCOc1ccc(-c2nc3c(c(SCC(=O)Nc4ccccc4C)n2)Cc2ccccc2O3)cc1	/	/	/	-27.4	-2.5%	0.5
COC(=O)c1ccccc1NC(=O)C1CCN(S(=O)(=O)c2cc(OC)ccc2OC)CC1	-1.2	-8.2%	-56.9%[inhibitor]	3.3	?	2.1
Cc1ccc(S(=O)(=O)NC2CCCCC2)cc1C(=O)N1CCC(C(N)=O)CC1	/	6.1%	-1.6%	32.5	-2.0%	-0.7
Cc1ccc(C2c3[nH]c4ccccc4c3CCN2C(=O)CCc2ccccc2)cc1 (configuration not stated)	/	/	/	-14.3	-7.1%	-0.1
CCC/C=C1\CCCOC(C(=O)NCc2ccc(C)o2)(C(F)(F)F)C1 (configuration not stated)	2.5	/	/	38.7	/	0.7
CN(C)c1nnnn1Cc1ccccc1	-2.6	1.7%	15.0%[15.4 µM]	12.8	/	-0.4
O=S(=O)(NCc1ccc(F)cc1)c1ccc2c(c1)OCCO2	0.9	23.0%	?	1.1	1.6%	-0.8
Cc1ccccc1-c1nc(P(=O)(c2ccccc2)c2ccccc2)c(N2CCOCC2)o1	3.3	-16.8%	-21.7%	-2.7	-26.2%	0.2
Cc1ccc(OCC(=O)NN=C2C3CC4CC(C3)CC2C4)cc1	/	4.3%	2.6%	9.2	0.7%	0.3
CCC(C)(C)n1nnnc1C(c1ccccn1)N1CCN(c2cccc(OC)c2)CC1 (configuration not stated)	3.5	3.9%	-10.9%	-2.5	-3.9%	-0.6
Cc1cnc(NC(=O)Nc2ccc(OCc3ccccc3)cc2)c(Br)c1	-0.6	10.8%	23.2%	0.6	/	-0.9
Cc1sc2ncnc(SCC(=O)NC3CCCC3)c2c1C	-4.4	-1.2%	-5.5%[15.4 µM]	-11.2	/	0.8
CCOC(=O)CSc1nc2sc(C)c(C)c2c(=O)n1C	3.9	5.6%	-44.7%	3.7	0.3%	2.2
Cc1cccc(C)c1OCC(O)CN1CCCCC1 (configuration not stated)	-2.3	9.5%	12.5%	-4.1	-5.2%	-0.5
O=c1cc(-c2ccccc2)n2c(SCc3ccc(F)cc3)nnc2[nH]1	/	/	/	2.6	-24.5%	0.1
Cn1ncc2nc[nH]c(=O)c21	4.0	9.8%	-9.1%	12.7	-4.0%	0.2
CC(C)CN(C(=O)COC(=O)c1ccccc1NCc1ccco1)c1c(N)n(Cc2ccccc2)c(=O)[nH]c1=O	/	-10.3%	0.3%	9.6	28.2µM*	1.3
CC1CCc2c(sc(NC(=O)CSc3nnc(-c4ccccc4)o3)c2C#N)C1 (configuration not stated)	3.8	-1.1%	13.4%	14.5	0.8%	-0.3
COc1ccc(Cn2c(=O)n(-c3ccc(F)c(Cl)c3)c(=O)c3c2c2cc(OC)ccc2n3C)cc1	/	/	/	-16.4	?	-0.2
CCOc1ccccc1CNC(=O)C1CCN(C(=O)c2sccc2-n2cccc2)CC1	-0.2	-5.8%	-1.8%	8.7	0.1%	0.9
Cc1ccccc1-n1ncc(C(C)NC(=O)c2ccccc2)c1C (configuration not stated)	0.1	13.1%	-6.2%	-4.0	0.9%	0.6
CCOc1ccccc1Nc1nnc(Cc2ccccc2Cl)c(=O)[nH]1	0.3	-14.5%	13.9%	-0.8	-0.6%	-1.3
Brc1cc2c(cc1Br)OCCOCCOCCO2	2.7	2.4%	8.3%[15.4 µM]	17.4	0.5%	-0.7
CCOC(=O)Cc1csc(NC(=O)CSc2nnc(-c3ccncc3)o2)n1	-3.1	8.8%	-2.4%	-6.6	/	0.8
Cc1ccc2c(c1)C(c1ccccc1)N(C(=O)c1cc3ccccc3oc1=O)CC(=O)N2 (configuration not stated)	3.5	-9.1%	?	11.3	-12.0%	0.5
CCCCOC(=O)c1ccc(NC(=O)c2sc3nc(C)cc(C)c3c2N)cc1	/	/	/	-12.3	4.3%	-1.0
O=C(CN1CCN(C(C(=O)Nc2ccc(F)cc2)c2ccccc2)CC1)NC1CC1 (configuration not stated)	/	7.4%	?	-11.3	3.7%	-0.6
COc1ccc(NC(=O)c2c(NCc3ccc(OC)c(OC)c3OC)sc3c2CCC3)c(OC)c1	/	/	/	-4.1	0.5%	-0.3
CC(C)(C)c1ccc(C(=O)N2CC(=O)Nc3ccc(F)cc3C2c2ccc(F)cc2)cc1 (configuration not stated)	/	/	/	9.5	-3.9%	2.9
COc1ccc(C)cc1NC(=O)CSc1nnc(COc2ccc(Cl)cc2)n1Cc1ccco1	5.4	-12.8%	-32.9%	45.3	1.0%	-0.4
CS(=O)(=O)c1ccc2nc(NC(=O)c3ccc(Cl)cc3)sc2c1	-1.2	-12.5%	24.2%	-6.4	/	0.1
CC(C)(C)c1ccc(C(=O)NC(=O)COC(=O)CCS(=O)(=O)c2ccccc2)cc1	/	1.9%	-10.0%	-13.7	2.0%	3.0
COc1ccc(N2C(=O)CCC(C(=O)N3CCOCC3)C2c2ccc(F)cc2)cc1 (configuration not stated)	4.2	4.5%	4.5%	-23.2	-1.9%	-0.2
COc1ccc(Cn2c(=O)c3[nH]cnc3n(-c3ccccc3C)c2=O)cc1	2.9	27.0%	-9.1%[15.4 µM]	-10.8	?	-0.8
Cc1nc(-c2ccc(S(=O)(=O)N(C)Cc3ccccc3)cc2)co1	/	/	/	-20.1	-5.5%	2.5
Cc1ccc(-c2csc(NC(=O)CSc3nc4ccccc4o3)n2)cc1	6.2	3.6%	2.5%	-9.5	1.0%	-0.1
Cc1cc(C)c(NC(=O)Cn2nc3c(cc2=O)CCCC3)c(C)c1	/	/	/	4.5	-2.1%	-0.3
Cc1ccccc1OCC(=O)Nc1nnc(SCc2cc(=O)n3cc(Cl)ccc3n2)s1	/	/	/	12.9	-5.4%	0.9
O=C(CN(CC1CCCO1)S(=O)(=O)c1ccc(S(=O)(=O)NCC2CCCO2)cc1)Nc1ccccc1 (configuration not stated)	1.1	-6.2%	-27.0%	-7.0	-1.3%	2.8
Cc1ccc(OCC(=O)Nc2ccccc2C(=O)NC2CC2)cc1C	/	3.8%	?	8.5	-1.8%	0.7

(cont.)
SMILES	Menin MLL FP FL	gsp antagonist	gsp agonist	TRPML1 blocker	ClpP mod	TRPML1 ag
Cc1cc(Cl)c2oc(C(=O)NC(C)c3ccncn3)c(C)c2c1 (configuration not stated)	1.1	-7.9%	12.2%	5.8	-14.0%	-1.4
Cc1ccc(C)c(CN2C(=O)c3ccccc3S(=O)(=O)c3ccc(C(=O)Nc4cc(F)ccc4F)cc32)c1	/	/	/	18.6	-19.9%	2.4
CCC(C(=O)Nc1cc(OC)cc(OC)c1)n1nc(-c2ccc(C)c(C)c2)ccc1=O (configuration not stated)	/	/	/	5.0	-18.9%	1.3
Cc1cc(C)n2nc(SCc3nnc(-c4ccccc4Br)o3)nc2n1	0.6	-6.5%	1.1%[15.4 µM]	-1.4	17.8µM*	0.5
CC(C)c1ccc(/C=C(\NC(=O)c2ccccc2)C(=O)NCCCn2ccnc2)cc1	/	7.9%	-25.4%	1.1	-1.4%	1.2
CCN1C(=O)c2cccc3c(S(=O)(=O)N4CCNCC4)ccc1c23	/	0.4%	-100.4%	-8.2	?	-0.7
COc1cc(/C=N/NC(=O)c2cccnc2)ccc1OC(=O)c1ccco1	2.4	-19.9%	4.7%	-0.6	-1.0%	0.3
O=C(Cc1ccccc1)NC(c1ccco1)c1c(O)ccc2ccccc12 (configuration not stated)	3.8	-9.4%	20.4%	26.3	?	1.3
Cc1[nH]c(=O)[nH]c(=O)c1CSc1nnc([C@H](CC(C)C)NC(=O)OC(C)(C)C)o1	4.1	2.7%	3.3%	33.9	1.1%	0.7
Cc1ccc(-c2ccc(/C=C(\C#N)C(N)=S)n2C)cc1	?	1.2%	30.4%[15.4 µM]	-9.6	-0.6%	-0.2

Assay outcomes: PubChem, National Center for Advancing Translational Sciences (NCATS)
